HSV replic up = HSV replication enhancement | HSV replication augmentation in cells, fold increase | maximum fold increase | 220,000 tested, 0.005% active | AID 1956;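 active = peak rise of 1.5-fold or more in the series; inconclusive = self-fluorescent or not available for retest; tested in PC3 cells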;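 note: first round at 10 µM; read as green reporter fluorescence; hits show the peak of a series up to 25 µM; 1 = signal of infected wells without compound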
PKD1 inh = PKD1 (human) kinase inhibition | Q15139 | PKD1 kinase fluorescence polarization assay | inhibition, %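 (about 10 µM by stock and volumes)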 | 200,000 tested, 0.056% active | AID 797;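 active = inhibition of 50% or more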;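 note: controls were vehicle for no effect and a reference inhibitor for full effect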
INS promoter inh = TRM-6 insulin promoter activity inhibition. TRM-6 cells (human fetal islet line), insulin promoter-eGFP reporter, imaging; reporter expression induced with tamoxifen. inhibition, % at 2 µM. 130,000 tested, 0.9% active. AID 1273;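 active = inhibition above the mean plus 3 SD, with well images judged a real hit on visual review, cut at about 60% in these data, passing the limit was not always enough; inconclusive = inhibition over the cutoff but images rejected on review; inactive = inhibition not above the cutoff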
RGS16-Gao = modulates binding between human RGS16 and Galphao; O15492+P09471; bead-based flow cytometry RGS16-Galphao binding, fluorescence; actives lie on both sides; binding response (% of control), % at 10 µM; 220,000 tested, 0.38% active; AID 1441;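 active = below 25% or above 175%, edge rows of some plates excepted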;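 note: Galphao activated by GDP with aluminum fluoride before binding; 100% = wells without compound and 0% = beads without RGS; some results beyond the cut were filed as inactive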
Target sequence (O15492 whole entry, looked up): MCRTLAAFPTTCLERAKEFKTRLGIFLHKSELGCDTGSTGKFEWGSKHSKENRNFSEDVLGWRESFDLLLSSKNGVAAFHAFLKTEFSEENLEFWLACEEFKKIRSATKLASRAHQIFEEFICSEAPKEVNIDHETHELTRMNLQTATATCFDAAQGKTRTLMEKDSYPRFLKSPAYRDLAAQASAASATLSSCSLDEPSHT
Target sequence (P09471 whole entry, looked up): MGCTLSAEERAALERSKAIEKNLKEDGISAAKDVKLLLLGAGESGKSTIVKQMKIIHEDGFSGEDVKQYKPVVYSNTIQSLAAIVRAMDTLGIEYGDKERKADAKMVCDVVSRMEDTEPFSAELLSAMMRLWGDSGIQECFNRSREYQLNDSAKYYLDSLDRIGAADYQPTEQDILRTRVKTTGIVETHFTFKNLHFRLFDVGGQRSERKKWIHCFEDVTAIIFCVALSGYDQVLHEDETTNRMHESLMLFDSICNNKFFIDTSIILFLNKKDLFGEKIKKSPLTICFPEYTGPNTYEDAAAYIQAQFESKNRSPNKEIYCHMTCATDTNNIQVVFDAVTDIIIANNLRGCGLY
GALR2 agonist = GALR2 (human) receptor agonism; O43603; GALR2-expressing cells, agonist activation read-out; activation, %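 (tested at 5 µM)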; 140,000 tested, 0.48% active; AID 803;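 active = above mean plus 3 SD of all compounds, about 5% in these data, not always enough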;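 note: 0% = vehicle buffer wells and 100% = reference agonist at full effect; tested in CHO reporter cells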
Target sequence (O43603 whole entry, looked up): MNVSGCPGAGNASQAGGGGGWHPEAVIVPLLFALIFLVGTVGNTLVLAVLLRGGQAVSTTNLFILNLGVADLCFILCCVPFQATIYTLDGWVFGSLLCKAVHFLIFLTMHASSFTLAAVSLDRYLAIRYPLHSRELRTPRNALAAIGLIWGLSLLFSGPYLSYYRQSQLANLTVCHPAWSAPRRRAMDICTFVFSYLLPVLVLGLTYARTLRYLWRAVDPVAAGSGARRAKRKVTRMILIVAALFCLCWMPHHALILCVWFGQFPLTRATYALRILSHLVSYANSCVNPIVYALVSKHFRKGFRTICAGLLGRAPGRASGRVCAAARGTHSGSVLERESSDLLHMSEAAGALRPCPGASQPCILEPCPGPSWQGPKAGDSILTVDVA
INS promoter inh cell count = second read-out of INS promoter inh, no call of its own (marks repeat the call); normalized cell count, %; measured here: cell count, toxicity; reference of the scale not given here;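 cells exposed to compound for 48 h; stained nuclei by imaging scaled within each plate; lower means fewer cells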
HSV replic up primary fold = second read-out of HSV replic up, no call of its own (marks repeat the call); fold increase; compound at 10 µM; measured here: primary screen fold increase 10 uM; tested in PC3 cells;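 GFP signal in the first replicate; 1 = infected wells without compound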
* = called active by the depositor; i = inactive; ? = inconclusive; / = no result given.

Start of the listing, in advance:
no.	SMILES	HSV replic up	HSV replic up primary fold	PKD1 inh	INS promoter inh	INS promoter inh cell count	RGS16-Gao	GALR2 agonist
1	COCCn1c(C)cc(C(=O)COc2ncnc3ccc(Br)cc23)c1C	i	0.92	-1	27	79	105	/
2	CC(C)c1cc(NC(=O)c2ccccc2)cc(C(C)C)c1O	i	0.98	2	/	/	98	/
3	O=C(COC(=O)CSc1ccc2ccccc2c1)NC1CC1	i	0.93	-11	/	/	108	-0.3
4	CC(=O)Nc1ccc(/C=N/NC(=O)c2cccc(S(=O)(=O)N3CCOCC3)c2)cc1	i	0.95	-17	/	/	100	-1.0
5	COc1cc(/C=C/C(=O)O)cc(S(=O)(=O)Nc2ccccc2Cl)c1OC	i	0.94	-1	7	110	111	-1.8

The list itself, repeating the preview:
no.	SMILES	HSV replic up	HSV replic up primary fold	PKD1 inh	INS promoter inh	INS promoter inh cell count	RGS16-Gao	GALR2 agonist
1	COCCn1c(C)cc(C(=O)COc2ncnc3ccc(Br)cc23)c1C	i	0.92	-1	27	79	105	/
2	CC(C)c1cc(NC(=O)c2ccccc2)cc(C(C)C)c1O	i	0.98	2	/	/	98	/
3	O=C(COC(=O)CSc1ccc2ccccc2c1)NC1CC1	i	0.93	-11	/	/	108	-0.3
4	CC(=O)Nc1ccc(/C=N/NC(=O)c2cccc(S(=O)(=O)N3CCOCC3)c2)cc1	i	0.95	-17	/	/	100	-1.0
5	COc1cc(/C=C/C(=O)O)cc(S(=O)(=O)Nc2ccccc2Cl)c1OC	i	0.94	-1	7	110	111	-1.8
6	CCn1c(CNc2ccc(C)cc2)nnc1SCC(N)=O	i	0.76	-2	57	107	109	-3.3
7	Cc1cc(=O)[nH]c(SCC(=O)O)c1C#N	i	0.91	4	-10	137	104	-1.5
8	Cc1cccc(-c2nnc(-c3ccc(N)cc3)o2)c1	i	1.1	-7	-33	116	99	-2.0
9	N#Cc1c(/N=C/C=C/c2ccccc2)sc2c1CCCC2	i	0.91	-11	/	/	99	-1.6
10	CCc1nc2ccccc2n1CC(=O)N1CCN(Cc2ccccc2)CC1	i	0.94	-5	/	/	94	/

The final three entries of the part before lead into the next:
no.	SMILES	HSV replic up	HSV replic up primary fold	PKD1 inh	INS promoter inh	INS promoter inh cell count	RGS16-Gao	GALR2 agonist
8	Cc1cccc(-c2nnc(-c3ccc(N)cc3)o2)c1	i	1.1	-7	-33	116	99	-2.0
9	N#Cc1c(/N=C/C=C/c2ccccc2)sc2c1CCCC2	i	0.91	-11	/	/	99	-1.6
10	CCc1nc2ccccc2n1CC(=O)N1CCN(Cc2ccccc2)CC1	i	0.94	-5	/	/	94	/
11	CC(C)n1c(NCCc2ccccc2)nc2c1c(=O)n(C)c(=O)n2C	i	0.88	-10	-14	135	100	-2.0
12	COC(=O)c1noc(-c2ccc(C)cc2)n1	i	0.9	4	12	105	96	-2.3
13	Cc1cc(NC(=O)c2sc(Nc3ccc(F)c(Cl)c3)nc2N)no1	i	0.75	-4	17	99	93	/
14	COc1ccc(Cc2nnc(NC(=O)C3CCCO3)s2)cc1OC (stereo not given)	i	0.9	-1	5	167	78	-0.4
15	COC(=O)C1=C(C)N(c2ccc(C)c(C)c2)/C(=C/c2ccc(O)cc2)C1=O	i	0.97	4	/	/	105	/
16	Clc1ccc(-n2nnc(-c3cccnc3)n2)cc1Cl	i	1.1	19	/	/	46	/
17	CS(=O)(=O)N1CCN(CC(=O)NC2CCCCC2)CC1	i	0.79	6	/	/	109	/
18	Cc1nc(C)c(-c2csc(Nc3ccc(F)cc3)n2)s1	i	0.88	-5	-19	111	102	/
19	CCSc1ncc(Cl)c(C(=O)Nc2ccc(S(=O)(=O)Nc3onc(C)c3C)cc2)n1	i	1	-5	35	197	101	-0.3
20	O=C(Oc1cc(=O)oc2ccccc12)c1ccco1	i	1.1	-14	6	92	97	0.2
21	O=C(O)c1ccc(/C=N/NC(=S)NC2CCCCC2)cc1	i	0.95	-5	/	/	99	/
22	COC(=O)NCCOc1cc(C)ccc1C	i	0.99	-11	-49	115	110	-0.9
23	Cc1ccc(C(=O)NNc2c3ccccc3nc3ccccc23)cc1	i	0.72	/	/	/	103	/
24	O=C(O)CSc1nnc(COc2cccc3ccccc23)n1Cc1ccccc1	i	0.98	-7	/	/	107	/
25	CCOc1cc(/C=N/NC(=O)c2cccnc2)cc(Br)c1OCC(N)=O	i	1	6	/	/	97	/
26	COCCNC(=O)C(=O)N/N=C(\C)CC(=O)Nc1ccc(Cl)cc1Cl	i	1	-2	27	101	102	-0.7
27	Nn1c(=S)[nH]nc(Cc2ccc(O)cc2)c1=O	i	1.1	-12	-38	111	108	-0.9
28	CCOC(=O)c1ccc(CNC(=O)Cn2nnc(-c3ccc(C)cc3)n2)o1	/	/	-8	-17	110	104	-0.1
29	Cc1ccc(NC(=O)CCN2C(=O)CSC2=O)c(C)c1	i	1	4	15	98	112	-0.9
30	O=C(Cn1c(-c2ccccc2)c[n+]2ccsc12)c1ccc(Br)cc1	i	1	2	/	/	106	/
31	Cc1ccc2c(c1)c1c(n2CC(O)Cn2c(C)nc3ccccc32)C(=O)CCC1 (stereo not given)	i	1.1	1	/	/	100	-0.8
32	COC(=O)CCN(C1CCCCC1)S(=O)(=O)c1ccc(S(=O)(=O)NC2CCCCC2)cc1	i	0.73	5	-56	50	102	0.5
33	O=[N+]([O-])c1cc(S(=O)(=O)NCCCN2CCOCC2)ccc1Cl	i	0.93	3	0	97	85	-1.5
34	CCC(CC)NCc1ccc(OC)cc1OC	i	1	-15	-185	73	93	-1.5
35	O=C(/C=C/c1ccc(Cl)c(Cl)c1)n1cccn1	i	0.93	-5	15	104	106	0.2
36	OCCSc1nc(N2CCOCC2)nc(N2CCOCC2)n1	i	0.95	0	29	102	102	/
37	C/C(=N\NC(=O)Cc1csc(N2CCOCC2)n1)c1ccc(Cl)c(Cl)c1	i	0.98	6	/	/	97	/
38	COc1ccc(F)cc1C(=O)C1CCCN(Cc2cccn2-c2cccnc2)C1 (stereo not given)	i	1.3	2	/	/	97	/
39	COc1ccc(-c2csc(-c3cccs3)n2)cc1OC	i	0.97	-5	/	/	102	/
40	CCOCCn1c(N2CCN(c3ccc(OC)cc3)CC2)nc2c1c(=O)[nH]c(=O)n2C	i	0.94	-1	/	/	104	-1.5

Only HSV replic up, for 3 of the compounds above:
no.	Molecule	HSV replic up
33	O=[N+]([O-])c1cc(S(=O)(=O)NCCCN2CCOCC2)ccc1Cl	i
32	COC(=O)CCN(C1CCCCC1)S(=O)(=O)c1ccc(S(=O)(=O)NC2CCCCC2)cc1	i
6	CCn1c(CNc2ccc(C)cc2)nnc1SCC(N)=O	i

The list continues.
no.	SMILES	HSV replic up	HSV replic up primary fold	PKD1 inh	INS promoter inh	INS promoter inh cell count	RGS16-Gao	GALR2 agonist
41	Cc1cc(=O)[nH]c2c1c(C)nn2C1CCCCC1	i	0.93	-10	-21	81	104	-0.3
42	COc1ccccc1CNC(=O)C1CCN(S(=O)(=O)N2CCCCC2)CC1	i	1	6	12	57	99	-1.3
43	CCc1c(C(=O)NCc2cnn(C)c2)csc1C	i	1.1	-6	24	93	103	-1.9
44	COc1cccc(/C(O)=C2\C(=O)C(=O)N(c3ccccn3)C2c2cccc(OC)c2OC)c1 (stereo not given)	i	0.95	6	4	92	98	-0.1
45	Cc1n[nH]c(C)c1N1C(=O)c2cccc3c(N4CCCCCC4)ccc(c23)C1=O	?	/	-12	/	/	120	1.0
46	C=CCNC(=O)c1ccc(C)c(Br)c1	i	0.7	-3	-22	123	104	-1.6
47	COc1ccc(NC(=S)N2CCC(C(O)(c3ccccc3)c3ccccc3)CC2)cc1	i	0.94	-1	10	52	91	0.6
48	COc1cc(CSC)nc(-c2ccccc2)n1	/	/	-3	-23	69	60	/
49	O=C(CNC(=O)c1ccccc1)OCc1ccc([N+](=O)[O-])cc1	i	0.94	-8	7	81	121	-1.8
50	O=C(COC(=O)c1ccc(CNS(=O)(=O)c2ccc(F)c(Cl)c2)cc1)NCC1CCCCC1	i	1	-3	-40	107	100	-0.9
51	CCc1nnc(NC(=O)CSc2nnc3c(n2)[nH]c2ccccc23)s1	i	0.99	-6	-62	98	102	/
52	O=C(Nc1ccc(OC(=O)c2ccco2)cc1)c1ccco1	i	1	-7	14	112	108	-1.5
53	Cc1[nH]ccc(=O)c1OCc1c(F)cccc1Cl	i	0.98	0	/	/	107	/
54	Cc1ccc(OCc2nc3c4c(ncn3n2)-c2ccccc2CC42CCCC2)cc1	i	1.2	2	-4	112	103	0.2
55	CN(C)C(=O)CSc1nnc(Cc2ccccc2)n1CC1CCCO1 (stereo not given)	i	0.93	-9	-36	60	110	/
56	CN(C)C(=O)N1CCC(C(=O)NCc2ccc3c(c2)OCO3)CC1	i	0.95	-9	3	134	108	-1.3
57	CCN1CCCC1Cn1cnc2c([nH]c3cccc(Cl)c32)c1=O (stereo not given)	i	0.88	-6	67	57	103	-0.3
58	COc1c2c(nc3ccccc13)OC(C(C)(O)COC(C)=O)C2 (stereo not given)	i	1.2	1	-80	71	96	2.2
59	COC(=O)COc1ccccc1C(N)=O	i	0.95	-2	-31	111	102	1.4
60	C=CCn1c(NCCO)nc2c1c(=O)n(C)c(=O)n2C	i	1	2	/	/	92	-2.9
61	COc1ccc(-c2cc(=Nc3c(C)n(C)n(-c4ccccc4)c3=O)c3ccccc3o2)cc1	i	1	3	/	/	102	/
62	CCc1ccccc1NC(=O)c1ccc(-n2c(C)ccc2C)cc1	i	0.47	8	16	99	97	-1.1
63	Cc1sc(NC(=O)c2ccco2)c(C(c2cccnc2)N2CCN(c3ccc(F)cc3)CC2)c1C (stereo not given)	i	0.95	0	14	161	90	1.1
64	Cc1cc(Br)ccc1SCC(=O)OCC(=O)Nc1ncc(C(F)(F)F)cc1Cl	i	1	-15	37	118	110	-0.6
65	CCn1nc(CCC(=O)O)c2ccccc2c1=O	i	0.97	1	12	149	109	-0.4
66	Cc1ccccc1NC(=O)c1ccc(F)c(S(=O)(=O)N2CCCCC2)c1	i	0.94	-4	-86	58	100	/
67	CC(C)NC(=O)C1CCN(C2CCN(C(=O)c3ccc4cccc(F)c4n3)CC2)CC1	i	1.1	/	/	/	98	/
68	CC1(C)CC(=O)C2=C(C1)N(Cc1ccco1)C(=O)NC2(C(F)(F)F)C(F)(F)F	i	0.92	5	-62	137	99	1.3
69	COc1cccc(-n2c(SCC(N)=O)nc3c([nH]c4ccccc43)c2=O)c1	/	/	-13	-252	68	101	-0.8
70	COC(=O)c1nc2n(n1)C(c1cc(OC)ccc1OC)C(C(=O)OC1CCCCC1)=C(C)N2 (stereo not given)	i	0.83	-12	/	/	104	-2.8
71	O=C(NCC(c1cccnc1)N1CCN(c2ccc(F)cc2)CC1)c1ccc2c(c1)OCO2 (stereo not given)	i	0.97	-4	17	52	107	-0.6
72	CCS(=O)(=O)c1ccc2oc(Nc3ccc(OC)cc3)nc2c1	i	0.9	5	-14	114	99	/
